# Assay outcomes: PubChem, National Center for Advancing Translational Sciences (NCATS)
# VDR inhibitor = Inhibitors of the vitamin D receptor (VDR): qHTS; VDR-SRC2-3 peptide fluorescence polarization, 2 h; Potency, µM, for the others: max response, negative = inhibition, most hits filed as inhibitors; actives 0.93% (n = 400,000); AID 504847, 2011; active = well fitted inhibition curve with a large enough effect; inconclusive = small, poorly fitted or top-dose-only effect, or another doubt; inactive = no such curve, though single readings can be large or run the other way; also: series mostly up to about 120 µM
# Target sequence (P11473 whole entry, looked up): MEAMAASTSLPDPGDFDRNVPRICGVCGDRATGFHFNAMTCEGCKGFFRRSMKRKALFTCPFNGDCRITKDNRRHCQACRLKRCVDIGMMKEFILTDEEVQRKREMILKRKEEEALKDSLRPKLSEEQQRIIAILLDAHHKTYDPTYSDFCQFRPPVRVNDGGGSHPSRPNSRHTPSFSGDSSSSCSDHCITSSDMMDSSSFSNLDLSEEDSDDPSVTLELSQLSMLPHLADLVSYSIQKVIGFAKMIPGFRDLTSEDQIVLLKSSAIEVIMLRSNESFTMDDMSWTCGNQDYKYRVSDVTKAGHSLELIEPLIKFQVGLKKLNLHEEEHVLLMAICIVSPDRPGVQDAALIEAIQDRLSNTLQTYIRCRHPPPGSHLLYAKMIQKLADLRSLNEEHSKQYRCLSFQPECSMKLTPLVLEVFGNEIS
#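 Fluorescence polarization assay measuring small-molecule disruption of VDR binding to the coregulator peptide SRC2-3. Compounds were pin-transferred (23 nl) into the reagent mix and incubated 2 h at room temperature before reading.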
# Numbers without * were called inactive; ? = inconclusive; & = joins results of further samples; ! = not confirmed by another sample. % is scaled to controls: 0 for no effect and ±100 for the full control effect; potency is read from the fitted curve at half-maximal effect. A portion of the library; count on the stated rates, not on these rows.
SMILES,VDR inhibitor
Cc1nc2ccc(NS(=O)(=O)c3c(C)c(C)cc(C)c3C)cc2s1,-12%
CCOC(=O)CN1CC23C=CC(O2)C(C(=O)N2CCN(c4ccc(F)cc4)CC2)C3C1=O (stereo not given),-18%
O=C(Cn1cc2c(n1)CCCCC2)N1CCc2ccccc2C1,-11%
CCN1C(=O)[C@@H]2[C@@H](c3ccc(-c4ccc(F)cc4)c(OC)c3)N3CCC[C@@]3(C(=O)OC)[C@@H]2C1=O,-11%
CN(Cc1ccco1)S(=O)(=O)c1ccc2c(c1)CCN2C(=O)CCC(=O)O,7%
CCC(C)n1c(SCC(=O)NC(=O)c2cccn2C)nc2ccccc2c1=O (stereo not given),17%
Cc1ccn2c(=O)c(NC(=O)c3cccs3)c(C)nc2c1,6%
CSc1ccc(CCNC(=O)CCc2c(C)nc3c4cccnc4nn3c2C)cc1,-6%
Cc1ccc(C)c(OCCCCn2cnc3ccccc3c2=O)c1,6%
Cc1ccc(OCC(=O)Nc2cccc(O)c2)cc1C,-3%
CCC(C)(C)NC(=O)c1cc(S(=O)(=O)N2CCCCC2)ccc1N1CCOCC1,-6%
Cc1cccc(OCCN2CCOCC2)c1C,-2%
CN1CCc2c(sc(NC(=O)CS(=O)(=O)c3ccccc3)c2C(N)=O)C1,10%
CN(C/C=C/c1ccccc1[N+](=O)[O-])Cc1ccccc1,3%
COC(OC)c1ccnc(-c2ccc(OC(=O)c3ccc(F)cc3)cc2)n1,-4%
Cn1nnnc1-c1cc(Br)ccc1NC(=O)c1ccccc1,10%
COc1ccc(S(=O)(=O)N2CCC(C(=O)NCC3CC3)CC2)cc1,19%
Cc1cc(C)cc(NC(=O)CSc2nc3ccncc3[nH]2)c1,3%
CCn1c(CNC(=O)c2cccc(C)c2)nnc1SCC(=O)Nc1nnc(C)s1,10%
Cc1cccc(S(=O)(=O)NNC(=O)c2cc(-c3ccc(F)cc3)nc3ccccc23)c1,-15%
Cc1ccc(CS(=O)(=O)CCC(=O)NCc2ccccn2)cc1,5%
COc1ccc(-c2cc(C(=O)NCc3ccc(F)cc3)no2)cc1,-12%
COc1cc2c(cc1NC(=O)C(C)OC(=O)/C=C/c1ccc(OC(F)F)cc1)oc1ccccc12 (stereo not given),-3%
O=C(CN1CCN(S(=O)(=O)c2ccccc2Cl)CC1)NCC1(N2CCOCC2)CCCCC1,5%
CC1=C(C(=O)OCC2CCCCC2)C(c2ccc(F)cc2F)CC(=O)N1 (stereo not given),-13%
COC(=O)c1cc(-c2cc(OC)ccc2OC)nc2c1c(=O)n(C)c(=O)n2Cc1ccccc1,-4%
Cc1cc(C)c2nc(NC(=O)CN3C(=O)NC4(CCCC4)C3=O)sc2c1,4%
CC(C)CN(C(=O)c1ccc(F)cc1F)c1c(N)n(CC(C)C)c(=O)[nH]c1=O,2%
CCCCC[C@@H]1C=C(C(=O)O)[C@H](c2ccc(Cl)cc2)N1S(=O)(=O)c1ccc(C)cc1,-18%
Cc1cccc(Cn2c(SCc3ccc(C(=O)NCc4ccccc4F)cc3)nc3ccncc32)c1,-10%
CCCCN(C)CCCNC(=O)c1cc(-c2cccnc2)nc2ccccc12,11%&-8%
COc1ccc(CNC(=O)Cn2c(=O)oc3cc(S(=O)(=O)N4CCC(C)CC4)ccc32)cc1,-11%
Cc1ccc(S(=O)CCNC(=O)Cc2ccccc2)cc1 (stereo not given),11%
COc1ccc(O)c(C(=O)c2cnc3c(c2)c(C)nn3C)c1,-18%
Cc1ccc(Nc2nc(CSc3nnc(-c4ccncc4)n3-c3ccccc3C)cs2)cc1,-20%
O=C(NCCC1CCCCN1S(=O)(=O)c1ccccc1)C(=O)NCc1ccncc1 (stereo not given),10%
COc1ccccc1N(CC(=O)Nc1ccc2c(c1)OCCO2)S(=O)(=O)c1ccc(C)cc1,2%
CCOc1cccc(C2C(C(=O)c3ccc(C)o3)=C(O)C(=O)N2Cc2ccccc2)c1 (stereo not given),-2%
COc1cc2c(cc1OC)n(Cc1ccc([N+](=O)[O-])cc1)c(=O)n1nc(-c3ccccc3)nc21,2%
CC1(C)CC(CNCCC(c2ccc(F)cc2)c2ccco2)CCO1 (stereo not given),-1%
O=C(NCc1ccccc1Cl)c1cnc2sc(N3CCCCC3)nn2c1=O,6%
OC[C@H]1O[C@H](OCCc2ccc(O)cc2)[C@H](O)[C@@H](O)[C@@H]1O,-6%
CCCNCc1cc(OCC)c(OCC(N)=O)cc1Br,9%
Fc1cccc(CN2CCN(Cc3nc(CCc4ccccc4)no3)CC2)c1,-8%
COc1cc(C(=O)NCCc2sc(-c3cccc(F)c3)nc2C)cc(OC)c1OC,7%
Cc1cccc(C)c1NC(=O)c1sc(N)nc1-c1ccccc1,6%
Cc1ccc(-n2nc3c(c2NC(=O)c2ccc(OC(C)C)cc2)CS(=O)C3)cc1 (stereo not given),9%
Cc1ccccc1C(=O)N1CCC(C(=O)Nc2ccc(F)cc2F)CC1,?
Nc1nc2ncc(C(=O)c3cc(Cl)cc(Cl)c3O)cc2s1,4%
COC(=O)c1sc(N2CCN(c3ccc(Cl)cc3)CC2)nc1N,16%
Fc1ccccc1/C=C1\CCCC2=C1Nc1nnnn1C2c1ccccc1F (stereo not given),?
CS(=O)(=O)c1cccc(C(=O)Nc2cccc(-c3nc4ccccc4[nH]3)c2)c1,-21%
COc1ccc(CC(=O)Oc2ccc(C(C)(C)C)cc2)cc1S(=O)(=O)N1CCOCC1,-16%
Cc1ccc(S(=O)(=O)NCCC(=O)OCC(=O)N(Cc2ccccc2)C(C)(C)C)cc1C,-12%
Cc1cc(Cl)c2oc(C(=O)N(C)CCCCN3CCOCC3)c(C)c2c1,-2%
CCC(=O)N1CCN=C1SCc1c(F)cccc1Cl,7%
COc1cc(C(=O)NCC(c2cccs2)S(=O)(=O)c2cccs2)cc(OC)c1OC (stereo not given),11%
CN(Cc1nc(-c2cnccn2)no1)CC(O)c1ccccc1 (stereo not given),-7%
Cc1cc(NS(=O)(=O)c2ccc(NC(=O)/C=C/c3ccccc3)cc2)nc(C)n1,-9%
O=C(NCCOc1ccc(Cl)cc1)C1CC(=O)N(c2ccc3c(c2)OCCO3)C1 (stereo not given),5%
# Next part
SMILES,VDR inhibitor
O=C(NN1C(=O)c2ccccc2NC1c1cccnc1)c1ccc([N+](=O)[O-])cc1 (stereo not given),1%
Cc1ccccc1C1NC(c2ccccc2C)C(C)C(=O)C1C (stereo not given),11%
CCOC(=O)C(c1ccccc1)C(Nc1cc(C(F)(F)F)cc(C(F)(F)F)c1)c1ccccn1 (stereo not given),16%
Cn1c(=O)c(=O)n(C)c2cc(S(=O)(=O)N3CCCC3C(=O)NCc3cccs3)ccc21 (stereo not given),3%
CCCCCCCNC(=O)C1(CC2CC(c3ccc(Cl)cc3)=NO2)CCN(C(=O)C2CCCC2)CC1 (stereo not given),6%
O=C(CC1N=C2c3ccccc3N=C(SCc3ccc(F)cc3)N2C1=O)NCc1ccco1 (stereo not given),-13%
CC(=O)Nc1ccc(S(=O)(=O)N2CCN(Cc3csc(C)n3)CC2)cc1,-14%
CCCCN(CC)CCCNC(=O)Nc1sc2nc3n(c(=O)c2c1C)CCC(C)CC3 (stereo not given),6%
O=C(Nc1nnc(C2CC2)s1)C1=NN(C2CCS(=O)(=O)C2)C(=O)CC1 (stereo not given),13%
CCCCn1nc(CC(=O)NCCN(CC)CC)c2ccccc2c1=O,9%
Cc1c(C(=O)Nc2ccccc2F)sc2ncn(CC(=O)N3CCOCC3)c(=O)c12,0%
C[n+]1cccc(C(=O)[O-])c1,-5%&10%
COc1ccc(CCNC(=O)c2cccc(NS(=O)(=O)c3ccccc3F)c2)cc1OC,5%
COc1cc(/C=C2/C(=O)ON=C2c2ccccc2)ccc1O,50µM*
CCOc1ccc(C(=O)Nc2ccc(N3CCCC3)cc2)cc1,-8%
Cc1cccc(C)c1OCc1cc(C(=O)N2CCCCCCC2)no1,-11%
COc1ccc2cc(C3=CC(=O)C[C@H](c4ccc5c(c4)OCO5)C3)ccc2c1,3%
O=C(c1c(F)cccc1F)N(Cc1cccs1)C1CCCC1,-9%
CCOC(=O)C1=C(C)N(C[C@@H]2CC[C@@H](Cc3ccc4cc(OC)ccc4c3)O2)C(=O)NC1c1ccccc1 (stereo not given in full),-3%
C=C(C)COc1ccc(-c2ncnc(C(F)(F)F)c2-c2ccc(OC)cc2)c(O)c1,13%
Cc1cc(C)c2c(CN3CC(C)OC(C)C3)cc(=O)oc2c1C (stereo not given),-6%
CCCCn1c(N)c(N(CC(C)C)C(=O)CCCSc2nncs2)c(=O)[nH]c1=O,-8%
Cc1c2oc3c(C)ccc(C(=O)N[C@@H]4C(=O)N[C@H](C(C)C)C(=O)N5CCC[C@H]5C(=O)N(C)CC(=O)N(C)[C@@H](C(C)C)C(=O)O[C@@H]4C)c3nc-2c(C(=O)N[C@@H]2C(=O)N[C@H](C(C)C)C(=O)N3CCC[C@H]3C(=O)N(C)CC(=O)N(C)[C@@H](C(C)C)C(=O)O[C@@H]2C)c(N)c1=O,45µM*!
O=C(NCCc1ccccc1)C1CCN(C2CCN(Cc3ccco3)CC2)CC1,-4%
CCn1c(/C=C2\C(=O)Nc3ccccc32)nc2ccccc2c1=O,-5%
CCCC(=O)Nc1ccc2c(c1)Cc1ccccc1-2,-12%
Cc1cc(Cl)c2oc(C(=O)NCCN3CCCCC3CO)c(C)c2c1 (stereo not given),0%
O=C(Nc1ccccc1Cl)/C(Cl)=C(\Cl)S(=O)c1ccccc1 (stereo not given),4µM*
COC(=O)CCNC(=O)Cn1cnc2sc3c(c2c1=O)CCCC3,3%
COc1ccc(NC(=O)C2CCN(S(=O)(=O)c3ccc4c(c3)NC(=O)CO4)CC2)cc1,-1%
Cc1cc(C)c(CN2CCN(C(=O)Cn3ccc(NC(=O)OCc4ccccc4)nc3=O)CC2)c(C)c1,3%
O=C(CCNS(=O)(=O)c1ccc2c(c1)CCN2C(=O)C1CC1)N1CCN(c2cccc(C(F)(F)F)c2)CC1,8%
O=S(=O)(c1ccccc1)N1CCNCC1,23%
CC1=C(C(=O)OCCOC(C)C)C(c2cc3c(cc2Br)OCO3)C2=C(CCCC2=O)N1 (stereo not given),7%
COc1ccccc1C1CC(c2ccc(Cl)cc2Cl)Nc2nc(N)nn21 (stereo not given),-11%
O=S(=O)(Nc1nc2ccccc2nc1Nc1ccc2c(c1)OCCO2)c1cccs1,4%
Cc1nn(Cc2ccc(Cl)cc2Cl)c(C)c1NC(=O)c1nn(C)cc1Cl,11%
O=C(O)c1cccc(N2C(=O)CSC2c2ccccc2)c1 (stereo not given),27%
Cc1ccc(C2(c3ccccc3)NC(=O)N(CC(=O)N3CC(=O)Nc4ccccc43)C2=O)cc1C (stereo not given),-2%
COc1cc(NC(=O)c2cc([N+](=O)[O-])ccc2NC(=O)CNC2CCCCC2)cc(OC)c1,-7%
COC(=O)c1ccc(NC(=O)CC2C(=O)N(c3ccccc3)C(=O)N2Cc2ccc(F)cc2)cc1 (stereo not given),-10%
C[C@H]1CN([C@@H](C)CO)C(=O)Cc2cc(NS(=O)(=O)c3ccc(Cl)cc3)ccc2O[C@@H]1CN(C)C(=O)Nc1cccc2ccccc12,2%
CCOP(=O)(OCC)C(NC(=O)Nc1ccc(Cl)c(Cl)c1)C(N)=O (stereo not given),3%
COc1ccc(N2CCN(C(c3cccc(OC)c3OC)c3nnnn3C3CCCC3)CC2)cc1 (stereo not given),20%
COc1cccc(NC(=O)C2CCN(S(=O)(=O)c3ccc4c(c3)N(C(C)=O)CCO4)CC2)c1,6%
CCOc1ccc(NC(=O)c2cc(F)c(F)cc2Cl)cc1OCC,-7%
CN1C(CC(=O)Nc2ccc(Cl)cc2Cl)c2ccccc2CC1(C)C (stereo not given),12%
O=C(CCc1ccccn1)N1CCCC(N2CCN(c3ccc(F)cc3)CC2)C1 (stereo not given),10%

# In the list so far, 17 contain a Cl atom.
SMILES,VDR inhibitor
O=C(CN1CCN(S(=O)(=O)c2ccccc2Cl)CC1)NCC1(N2CCOCC2)CCCCC1,5%
CCCCC[C@@H]1C=C(C(=O)O)[C@H](c2ccc(Cl)cc2)N1S(=O)(=O)c1ccc(C)cc1,-18%
O=C(NCc1ccccc1Cl)c1cnc2sc(N3CCCCC3)nn2c1=O,6%
Nc1nc2ncc(C(=O)c3cc(Cl)cc(Cl)c3O)cc2s1,4%
COC(=O)c1sc(N2CCN(c3ccc(Cl)cc3)CC2)nc1N,16%
Cc1cc(Cl)c2oc(C(=O)N(C)CCCCN3CCOCC3)c(C)c2c1,-2%
CCC(=O)N1CCN=C1SCc1c(F)cccc1Cl,7%
O=C(NCCOc1ccc(Cl)cc1)C1CC(=O)N(c2ccc3c(c2)OCCO3)C1 (stereo not given),5%
CCCCCCCNC(=O)C1(CC2CC(c3ccc(Cl)cc3)=NO2)CCN(C(=O)C2CCCC2)CC1 (stereo not given),6%
Cc1cc(Cl)c2oc(C(=O)NCCN3CCCCC3CO)c(C)c2c1 (stereo not given),0%
O=C(Nc1ccccc1Cl)/C(Cl)=C(\Cl)S(=O)c1ccccc1 (stereo not given),4µM*
COc1ccccc1C1CC(c2ccc(Cl)cc2Cl)Nc2nc(N)nn21 (stereo not given),-11%
Cc1nn(Cc2ccc(Cl)cc2Cl)c(C)c1NC(=O)c1nn(C)cc1Cl,11%
C[C@H]1CN([C@@H](C)CO)C(=O)Cc2cc(NS(=O)(=O)c3ccc(Cl)cc3)ccc2O[C@@H]1CN(C)C(=O)Nc1cccc2ccccc12,2%
CCOP(=O)(OCC)C(NC(=O)Nc1ccc(Cl)c(Cl)c1)C(N)=O (stereo not given),3%
CCOc1ccc(NC(=O)c2cc(F)c(F)cc2Cl)cc1OCC,-7%
CN1C(CC(=O)Nc2ccc(Cl)cc2Cl)c2ccccc2CC1(C)C (stereo not given),12%
